Assay outcomes from PubChem BioAssay.
ALR H2O2 inh – blocks human ALR sulfhydryl oxidase activity; purified ALR, DTT oxidation, H2O2 HRP-luminol luminescence; inhibition, % (concentration not given with the values); actives 3.8% (n = 290,000); AID 485317;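 active means mean and each replicate at 75% or more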;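 further: stock transfer was 7.5 nL into about 7.5 µL; 0% = neutral wells and 100% = wells with inactivated enzyme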
Target sequence (P55789 whole entry, looked up): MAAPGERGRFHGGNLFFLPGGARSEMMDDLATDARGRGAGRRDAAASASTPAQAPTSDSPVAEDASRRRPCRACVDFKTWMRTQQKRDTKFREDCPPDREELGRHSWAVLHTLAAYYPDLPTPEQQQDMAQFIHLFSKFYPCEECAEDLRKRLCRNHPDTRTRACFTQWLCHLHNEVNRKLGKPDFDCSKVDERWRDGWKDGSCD
E coli growth – E. coli growth inhibition; Escherichia coli growth, OD600, 23 h; active compounds read low; OD600 absorbance (no concentration beside the values); actives 0.21% (n = 330,000); AID 1053175;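 active means OD600 absorbance below the run mean of sample wells minus 3.6 SD, in any replicate, cut at about 0.56 in these data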;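 further: stock transfer was 300 nL into about 60 µL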
HNF4A DNA FP – change in binding of human HNF4 alpha to DNA | P41235 | HNF4a-FITC DNA binding, fluorescence polarization, 1 h | activity change, % at 10 µM | actives 0.3% (n = 360,000); in the data active means activity change above about 30%, passing the limit was not always enough;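 further: controls were the assay level and a saturating level of protein; the project sought stronger binding though the title names inhibitors; some compounds called inactive have numbers as strong as hits; positive values seem to mean higher polarization but the record does not say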
FGF22 binding – binders of recombinant human FGF22 by thermal shift; SYPRO orange fluorescence; percent of sucrose octasulfate shift, DMSO zero; calls only at 9.99 µM; actives 1.5% (n = 340,000);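 active means melting point raised past a set limit in the mean and every replicate; three in four hits are not shown here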
Target sequence (Q9HCT0 whole entry, looked up): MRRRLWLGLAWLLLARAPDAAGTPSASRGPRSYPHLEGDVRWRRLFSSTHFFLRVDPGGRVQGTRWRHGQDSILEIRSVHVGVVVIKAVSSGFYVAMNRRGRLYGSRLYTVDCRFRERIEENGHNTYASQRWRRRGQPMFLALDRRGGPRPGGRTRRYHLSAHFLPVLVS
AF4-AF9 inh – blocks AF4 peptide binding to human AF9; P42568; AlphaScreen, biotin-AF4 peptide binding to FLAG-AF9; inhibition, % at 10 µM; actives 0.47% (n = 350,000); AID 651704;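 active means every replicate reaching a set inhibition limit, whatever the replicate mean, cut at about 25% in these data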;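 further: 0% = plate neutral control median and 100% = total signal loss; the record names both 10 and 1 µM as test concentration; the first replicate is given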
Target sequence (P42568 whole entry, looked up): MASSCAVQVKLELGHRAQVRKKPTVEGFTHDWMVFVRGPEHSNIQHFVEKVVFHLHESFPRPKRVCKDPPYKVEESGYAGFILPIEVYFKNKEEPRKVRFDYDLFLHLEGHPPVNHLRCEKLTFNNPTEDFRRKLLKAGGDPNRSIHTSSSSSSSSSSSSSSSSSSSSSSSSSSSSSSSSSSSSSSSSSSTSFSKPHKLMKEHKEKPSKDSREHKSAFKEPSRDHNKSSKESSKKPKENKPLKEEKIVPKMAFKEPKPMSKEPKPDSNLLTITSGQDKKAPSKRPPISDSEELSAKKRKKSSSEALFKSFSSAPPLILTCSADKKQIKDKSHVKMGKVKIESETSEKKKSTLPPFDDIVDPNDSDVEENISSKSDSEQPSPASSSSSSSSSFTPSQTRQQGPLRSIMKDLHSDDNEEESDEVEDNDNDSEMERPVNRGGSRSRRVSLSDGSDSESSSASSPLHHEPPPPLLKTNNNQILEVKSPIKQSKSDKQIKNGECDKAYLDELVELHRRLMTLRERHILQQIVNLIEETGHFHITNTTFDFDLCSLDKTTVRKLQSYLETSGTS
Vif A3G – inhibitors of Vif binding to APOBEC3G peptide, primary screen, biochemical, TR-FRET, GST-Vif 1-94, biotin-A3G peptide, dose response retest (AID 1117319). TR-FRET GST-Vif / biotin-A3G peptide binding; higher % means a stronger effect; test concentration not given here; strong numbers were not always called active. one-dose inhibition, %; IC50 in µM for titrated hits. actives 0.57% (n = 260,000);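 active means above the screen mean plus three standard deviations and confirmed in dose response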;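 further: Vif residues 1-94 fused to GST binding biotinylated APOBEC3G peptide 110-148; 0% = full assay without inhibitor and 100% = GST in place of GST-Vif; retest series ran down from 100 µM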
Ecoli rRNA inh – inhibitors of bacterial rRNA selective over humanized ribosomes; E. coli WT GFP vs humanized-ribosome RFP mutants, fluorescence, 24 h; active compounds read low; DMSO median 0, no signal -100; GFP signal change (wild-type ribosome), % (test concentration not listed); actives 1.6% (n = 350,000);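 active means significant combined selectivity score with lowered wild-type GFP, culture density cut under 30%, mutant RFP and density less affected; inactive means any of these conditions unmet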; further: one replicate is shown; some compounds called inactive have numbers as strong as hits
Ecoli rRNA inh OD600 – second read-out of Ecoli rRNA inh, no call of its own (marks repeat the call); OD600 change, %; measured here: OD600 growth;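 optical density of the mix in the first replicate; 0 = DMSO median and -100 = no signal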
Ecoli rRNA inh RFP – second read-out of Ecoli rRNA inh, no call of its own (marks repeat the call); RFP signal change, %; measured here: RFP humanized mutant strains;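 first replicate; 0 = DMSO median and -100 = no signal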
Starred values were filed as active, the others as inactive; i = inactive; . = not tested or not shown. These rows are one share of the data; rates above refer to the full screens.

Sequence of screens: HNF4A DNA FP	Ecoli rRNA inh OD600	AF4-AF9 inh	E coli growth	Vif A3G	ALR H2O2 inh	Ecoli rRNA inh RFP	FGF22 binding	Ecoli rRNA inh
CN(C)C(CNC(=O)c1ccc2nccnc2c1)c1ccco1 (centres undefined)
→ -2.7	10	-1.6	0.67	-9%	-2	0.3	i	3
COc1cc(CCNC2=CC(=O)c3ncccc3C2=O)ccc1O
→ 5.6	-55	2.0	.	8%	.	-9.5	i	-38
O=C(N/N=C/c1ccccc1F)c1csc2c1CCCC2
→ -1.4	4	.	.	-2%	-1	2.3	.	4
O=C(CC(SCCO)c1ccc2c(c1)OCO2)c1ccco1 (centres undefined)
→ -0.1	.	.	0.73	0%	97*	.	.	.
CCC(=O)N1C[C@@H](O)COC[C@H]2O[C@@H](CC(=O)NCC3CCCCC3)CC[C@@H]21
→ .	4	2.5	.	.	.	3.2	i	5
COc1ccc(NC(=O)CN(C)C(=O)c2cc3c(cc2Cl)N2CCCCCC2=NS3(=O)=O)cc1
→ -0.3	9	0.7	0.55	12%	0	-1.9	i	4
Cc1ccc2nc(NC(=O)c3ccc4c(c3)OCO4)sc2c1
→ -0.5	-1	-48	0.7	-7%	-5	-1.0	i	-1
Cn1cc(CN2CCC(n3nccc3NC(=O)CCOc3ccccc3)CC2)cn1
→ 2.5	16	0.1	0.64	.	-20	-3.2	i	8
Cc1ccc(NC(=O)CSCC(=O)NCCc2ccccc2)c(C)c1
→ 0.7	3	0.5	0.69	-13%	-2	-1.3	i	3
O=C(OCc1cn([C@H]2C[C@H](c3ccccc3)N(C(=O)c3cccs3)C[C@@H]2O)nn1)c1ccccc1
→ -2.5	-3	-3.0	.	.	.	0.8	i	-2
Cc1nc2ccc(-n3ccc(=O)cc3)cc2s1
→ -1.0	9	-1.5	0.73	1%	-5	14	i	-1
NS(=O)(=O)c1ccc(CCNC(=O)COC(=O)/C=C/c2ccccc2Cl)cc1
→ 2.7	3	0.9	0.71	-4%	6	2.9	i	0
Cc1ccccc1CN(C)C(C)C(=O)Nc1ccccc1F (centres undefined)
→ 1.4	-69	-1.1	0.65	-12%	14	-9.7	i	-47
O=C(Nc1cccc(Cl)c1)Nc1cccc(Cl)c1
→ 0.0	.	.	0.64	-3%	-6	.	.	.
Cc1cc(NC(=O)CN2C(=O)NC3(CCC(C)CC3)C2=O)no1 (centres undefined)
→ 2.0	.	.	0.69	.	-4	.	.	.
COCc1cccc(-c2csc(C(C)(NC(C)=O)c3ccc(OC)cc3)n2)c1 (centres undefined)
→ 3.8	-41	-2.3	.	.	.	-1.8	i	-31
O=C1CCCCN1CC(=O)N1CCCC(N2CCN(c3ccccc3F)CC2)C1 (centres undefined)
→ 2.0	17	2.6	0.67	.	0	-1.8	i	5
COc1ccc(Cc2nnc(SCC(=O)c3c(N)n(C4CC4)c(=O)[nH]c3=O)o2)cc1
→ -1.8	.	-2.0	0.72	-8%	-4	.	i	.
O=C(CN1C(=O)c2ccccc2C1=O)Nc1ccc(Cl)cn1
→ 5.4	7	-2.5	0.69	3%	-2	-1.1	i	-1
CC1Oc2ccccc2N(Cc2ccccc2F)C1=O (centres undefined)
→ .	.	.	0.64	-6%	-1	.	.	.
O=C(NCc1ccccn1)c1cc2cc(Br)ccc2oc1=O
→ -0.9	.	-0.1	0.72	0%	-2	.	i	.
O=C(Nc1ccccc1F)c1ccc(S(=O)(=O)N2CCCCCC2)cc1
→ 3.3	-21	-3.7	0.62	2%	.	0.3	i	-2
O=C(NCc1cccnc1)c1cc(Sc2ccccc2Cl)nc2ccccc12
→ 0.9	.	.	0.69	.	-33	.	.	.
C[C@@H]1CN([C@H](C)CO)S(=O)(=O)c2ccc(-c3ccccc3F)cc2O[C@H]1CN(C)S(C)(=O)=O
→ .	-12	0.2	.	.	.	-1.4	i	0
Cc1ccccc1C(=O)N1CCC(C(=O)NC2CCCC2)CC1
→ 0.1	9	1.7	0.71	.	.	-2.3	i	4
Cc1ccc2c(c1)N(C(=O)CCC(=O)NCc1cccc(Cl)c1)CC(C)O2 (centres undefined)
→ 0.8	-62	-4.8	0.77	.	-2	-5.9	i	-33
C=C(C)CC(NCc1ccco1)c1ccc(OC)cc1 (centres undefined)
→ 0.8	.	.	0.76	8%	2	.	.	.
CCNC(=O)C[C@@H]1C=C[C@H](NC(=O)C2CCOCC2)[C@@H](CO)O1
→ .	2	-2.5	.	.	.	-2.1	i	-1
CC(=O)CSc1nnc(-c2ccc(S(=O)(=O)N3CCC(C)CC3)cc2)o1
→ 2.1	.	.	0.73	-14%	0	.	.	.
C[C@H]1CN([C@@H](C)CO)C(=O)c2cc(NC(=O)CCC(F)(F)F)ccc2O[C@H]1CN(C)C(=O)Nc1ccc(F)cc1
→ .	0	-1.0	.	.	.	-1.1	i	-1

Some of these compounds in order of length of the SMILES, rising.
Sequence of screens: HNF4A DNA FP	Ecoli rRNA inh OD600	AF4-AF9 inh	E coli growth	Vif A3G	ALR H2O2 inh	Ecoli rRNA inh RFP	FGF22 binding	Ecoli rRNA inh
C=C(C)CC(NCc1ccco1)c1ccc(OC)cc1 (centres undefined)
→ 0.8	.	.	0.76	8%	2	.	.	.
Cc1ccccc1C(=O)N1CCC(C(=O)NC2CCCC2)CC1
→ 0.1	9	1.7	0.71	.	.	-2.3	i	4
CC(=O)CSc1nnc(-c2ccc(S(=O)(=O)N3CCC(C)CC3)cc2)o1
→ 2.1	.	.	0.73	-14%	0	.	.	.

(next part)
Sequence of screens: HNF4A DNA FP	Ecoli rRNA inh OD600	AF4-AF9 inh	E coli growth	Vif A3G	ALR H2O2 inh	Ecoli rRNA inh RFP	FGF22 binding	Ecoli rRNA inh
CCOC(=O)CNC(=O)CSc1nnc(-c2ccco2)n1N
→ -0.6	.	.	0.7	1%	-2	.	.	.
CCc1ccc(CNCCNC(=O)c2ccco2)cc1
→ -3.3	-20	-2.0	.	.	.	2.4	i	1
Cc1cccc(NC(=O)C2CCN(S(=O)(=O)c3ccc4c(c3)C(C)(C)C(=O)N4C)CC2)c1C
→ 2.3	-7	-1.4	0.72	.	-1	3.1	i	-9
CCOCCn1c(=O)c2c(nc3n2CCCN3Cc2ccccc2)n(C)c1=O
→ 5.0	4	7.1	0.69	0%	4	-3.0	i	2
C[C@H](CO)N1C[C@H](C)[C@@H](CN(C)S(=O)(=O)c2ccc(Cl)cc2)Oc2ccc(NC(=O)Cn3cnnn3)cc2CC1=O
→ .	6	1.2	.	.	.	-1.0	i	0
CC(C)(O)C#Cc1ccc([C@@H]2[C@H](CO)N3CCCCN(C(=O)c4cccc(F)c4)C[C@@H]23)cc1
→ .	14	-6.1	.	.	.	0.8	i	6
COc1ccc(OCc2cc(C(=O)N3CCCC(O)C3)no2)c2ccccc12 (centres undefined)
→ -0.5	-24	1.3	0.7	.	-19	2.4	i	-11
CCOC(=O)C1CCN(CC(C)(C)NS(=O)(=O)c2ccc(Cl)cc2)CC1
→ -1.1	7	2.4	0.67	.	.	-0.7	i	3
CN1CCN(c2nc(N3CCN(c4ccccc4)CC3)ncc2F)CC1
→ 4.6	.	.	0.65	27%	99*	.	.	.
C/C(CC(=O)Nc1cccc2c1CCCC2)=N\NC(=O)Cc1ccccc1
→ 0.9	-3	-2.8	.	-13%	.	-5.6	i	-7
COc1ccc(Cl)cc1S(=O)(=O)N1CCCC(C(=O)NCc2ccncc2)C1 (centres undefined)
→ 4.4	5	-1.3	0.7	0%	-7	-2.6	i	8
C[C@H](CO)N1C[C@H](C)[C@H](CN(C)Cc2ccc(Oc3ccccc3)cc2)Oc2ccc(NC(=O)Cc3ccccc3)cc2CC1=O
→ .	-6	-0.1	.	.	.	1.7	i	-2
CCC(C)Nc1nc2c(c(=O)n(C)c(=O)n2C)n1Cc1ccc(F)cc1 (centres undefined)
→ 0.4	8	-9.3	0.68	-3%	90*	-1.1	i	5
CC(C)Oc1ccc(/C=C/C(=O)NCC2COc3ccccc3O2)cc1 (centres undefined)
→ -0.4	-7	-1.2	0.68	2%	0	1.8	i	-16
COc1ccc(CCNC(=O)C(=O)NCC2OCCN2S(=O)(=O)c2ccccc2)cc1 (centres undefined)
→ 3.2	-7	1.5	0.78	.	.	-4.1	i	6
COc1ccc(C(OC(=O)c2cccs2)C(=O)NCC2CCCO2)cc1 (centres undefined)
→ -1.3	.	.	0.69	-4%	-6	.	.	.
CCN(CC)C(=O)c1sc2c(c1C)c(=O)n(-c1ccc(OC)cc1OC)c(=O)n2CC(=O)c1ccccc1
→ 2.9	3	0.4	0.7	6%	-36	4.7	i	1
Nc1nnc(SCC(=O)N2CCN(c3ccccc3)CC2)s1
→ 1.3	.	.	0.68	7%	99*	.	.	.
COCCN(C(=S)Nc1ccc(C)c(C)c1)C(C)c1ccco1 (centres undefined)
→ 6.5	4	1.3	0.66	-7%	.	4.4	i	0
CCOc1ccc(Nc2nc(N)c([N+](=O)[O-])c(NCc3ccccc3)n2)cc1
→ 2.5	18	2.4	0.69	6%	0	5.6	i	14
C[C@@H](C(=O)Nc1ccc2ccccc2c1)[C@H]1C[C@]1(C)[C@H](NC(=O)c1cccnc1)c1ccccc1
→ .	-40	0.7	.	0%	15	28	i	-10
COc1cc(Br)c(CCNC(=O)Cc2ccccc2)cc1OC
→ -0.9	.	.	0.68	10%	.	.	.	.
CC(C)OC(=O)Nc1ccc(Oc2c(F)c(F)c(F)c(F)c2F)cc1
→ 1.8	.	.	0.71	24%	-9	.	.	.

Some of the entries so far, tab-delimited:
Molecule	HNF4A DNA FP	Ecoli rRNA inh OD600	AF4-AF9 inh	E coli growth	Vif A3G	ALR H2O2 inh	Ecoli rRNA inh RFP	FGF22 binding	Ecoli rRNA inh
CN(C)C(CNC(=O)c1ccc2nccnc2c1)c1ccco1 (centres undefined)	-2.7	10	-1.6	0.67	-9%	-2	0.3	i	3
COc1cc(CCNC2=CC(=O)c3ncccc3C2=O)ccc1O	5.6	-55	2.0	.	8%	.	-9.5	i	-38
O=C(N/N=C/c1ccccc1F)c1csc2c1CCCC2	-1.4	4	.	.	-2%	-1	2.3	.	4
O=C(CC(SCCO)c1ccc2c(c1)OCO2)c1ccco1 (centres undefined)	-0.1	.	.	0.73	0%	97*	.	.	.
CCC(=O)N1C[C@@H](O)COC[C@H]2O[C@@H](CC(=O)NCC3CCCCC3)CC[C@@H]21	.	4	2.5	.	.	.	3.2	i	5
COc1ccc(NC(=O)CN(C)C(=O)c2cc3c(cc2Cl)N2CCCCCC2=NS3(=O)=O)cc1	-0.3	9	0.7	0.55	12%	0	-1.9	i	4
